# High-throughput results: PubChem, Broad Institute
# HIV Env fusion = inhibitors of HIV-1 Env-driven cell-cell fusion, primary screen, HeLa-JRFL effector, CEM21 target cells, luciferase. inhibition, % at 12.3 µM. AID 651610, 2012. 360,000 compounds, 1.1% hits;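 active = mean replicate inhibition score of at least 50 and every replicate individually at or above 50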;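 note: 0% = plate neutral controls and 100% = maraviroc near 300 nM; one replicate is shown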
# Yeast UUG start = modulators of yeast start codon fidelity, primary screen, whole organism, S. cerevisiae, single point, plate reader | S. cerevisiae UUG-firefly luciferase reporter, luminescence/redox ratio | AID 602363, 2012 | activity score, % at 18.7 µM | 350,000 compounds, 0.13% hits;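 active = replicate mean at a twofold rise or more, about +100% in these data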;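 note: firefly luciferase made from a UUG start codon reports start codon fidelity; reporter light over untreated wells divided by growth signal over untreated wells; some hits fall short of that in this replicate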
# * hit, by the source's call; [ ] = another dose, or the depositor's remark. An excerpt; the hit share may differ from the screen's.
# The first 11 records, ahead of the listing:
HIV Env fusion,Yeast UUG start,structure
-15[16.7 µM],18,CNC[C@H]1Oc2ccc(NC(=O)C3CCCCC3)cc2C(=O)N([C@@H](C)CO)C[C@H]1C
14[16.7 µM],18,CN(C)Cc1cn(CC[C@H]2CC[C@@H](NS(=O)(=O)c3ccc(-c4ccccc4)cc3)[C@@H](CO)O2)nn1
4[16.7 µM],-16,C[C@H]1CN([C@@H](C)CO)C(=O)c2cc(Br)cnc2O[C@@H]1CN(C)Cc1ccccc1
-14[16.7 µM],1,O=C(O)C[C@H]1C[C@H]2c3cc(NC(=O)C4CCC4)ccc3O[C@H]2[C@H](CO)O1
1[16.7 µM],-8,C[C@H]1CN([C@@H](C)CO)C(=O)Cc2cc(NC(=O)CCC(F)(F)F)ccc2O[C@H]1CN(C)S(=O)(=O)c1cn(C)cn1
20[16.7 µM],18,C[C@H]1CCCCO[C@H](CN(C)C)[C@@H](C)CN([C@@H](C)CO)C(=O)c2cc(NC(=O)Cc3ccccc3)ccc2O1
12[16.7 µM],1,O=C(C[C@H]1C=C[C@H](NC(=O)c2ccncc2)[C@@H](CO)O1)NCC1CCCCC1
18[16.7 µM],6,C[C@H]1CN([C@@H](C)CO)C(=O)c2cc(-c3ccccc3)cnc2O[C@@H]1CN(C)C(=O)c1cccnc1
-14[16.7 µM],-4,CS(=O)(=O)N1[C@H](CO)[C@H](c2ccc(-c3ccccc3F)cc2)[C@@H]1C#N
-9[16.7 µM],-7,O=C(C[C@H]1C=C[C@@H](NC(=O)Nc2cc(F)ccc2F)[C@H](CO)O1)Nc1ccc(-c2ccccc2)cc1
16[16.7 µM],2,C[C@@H]1CN([C@H](C)CO)C(=O)c2cc(NC(=O)Nc3ccc4c(c3)OCO4)ccc2O[C@H]1CN(C)C(=O)NC1CCCCC1

# The list itself, repeating the preview:
HIV Env fusion,Yeast UUG start,structure
-15[16.7 µM],18,CNC[C@H]1Oc2ccc(NC(=O)C3CCCCC3)cc2C(=O)N([C@@H](C)CO)C[C@H]1C
14[16.7 µM],18,CN(C)Cc1cn(CC[C@H]2CC[C@@H](NS(=O)(=O)c3ccc(-c4ccccc4)cc3)[C@@H](CO)O2)nn1
4[16.7 µM],-16,C[C@H]1CN([C@@H](C)CO)C(=O)c2cc(Br)cnc2O[C@@H]1CN(C)Cc1ccccc1
-14[16.7 µM],1,O=C(O)C[C@H]1C[C@H]2c3cc(NC(=O)C4CCC4)ccc3O[C@H]2[C@H](CO)O1
1[16.7 µM],-8,C[C@H]1CN([C@@H](C)CO)C(=O)Cc2cc(NC(=O)CCC(F)(F)F)ccc2O[C@H]1CN(C)S(=O)(=O)c1cn(C)cn1
20[16.7 µM],18,C[C@H]1CCCCO[C@H](CN(C)C)[C@@H](C)CN([C@@H](C)CO)C(=O)c2cc(NC(=O)Cc3ccccc3)ccc2O1
12[16.7 µM],1,O=C(C[C@H]1C=C[C@H](NC(=O)c2ccncc2)[C@@H](CO)O1)NCC1CCCCC1
18[16.7 µM],6,C[C@H]1CN([C@@H](C)CO)C(=O)c2cc(-c3ccccc3)cnc2O[C@@H]1CN(C)C(=O)c1cccnc1
-14[16.7 µM],-4,CS(=O)(=O)N1[C@H](CO)[C@H](c2ccc(-c3ccccc3F)cc2)[C@@H]1C#N
-9[16.7 µM],-7,O=C(C[C@H]1C=C[C@@H](NC(=O)Nc2cc(F)ccc2F)[C@H](CO)O1)Nc1ccc(-c2ccccc2)cc1
16[16.7 µM],2,C[C@@H]1CN([C@H](C)CO)C(=O)c2cc(NC(=O)Nc3ccc4c(c3)OCO4)ccc2O[C@H]1CN(C)C(=O)NC1CCCCC1
-11[16.7 µM],8,CC(C)C(=O)Nc1ccc2c(c1)C(=O)N(C)[C@@H]1CC[C@@H](CC(=O)NCc3ccc(F)cc3)O[C@@H]1CO2
-5[16.7 µM],-17,COc1ccc(CN(C)C[C@@H]2Oc3ccc(NC(=O)Nc4c(C)noc4C)cc3C(=O)N([C@H](C)CO)C[C@@H]2C)cc1
-9[16.7 µM],-13,CC(C)c1cn(CC[C@@H]2CC[C@H](NC(=O)c3cccc(F)c3)[C@H](CO)O2)nn1
-14[16.7 µM],3,CCCC#Cc1ccc2c(c1)O[C@H](CN(C)C(=O)Nc1ccc(OC)cc1)[C@@H](C)CN([C@H](C)CO)S2(=O)=O
-5[16.7 µM],8,COc1ccc(NC(=O)Nc2ccc3c(c2)C(=O)N([C@H](C)CO)C[C@H](C)[C@@H](CN(C)Cc2ccncc2)OCCCC[C@H](C)O3)cc1
33[16.7 µM],-8,C[C@@H]1CN([C@@H](C)CO)C(=O)c2cc(NC(=O)Cc3ccccc3)ccc2O[C@@H](C)CCCCO[C@@H]1CN(C)S(=O)(=O)c1cccs1
-13[16.7 µM],9,CCCC(=O)Nc1ccc2c(c1)OC[C@H](C)N(S(=O)(=O)c1cn(C)cn1)C[C@@H](C)[C@H](OC)CN(C)C2=O
-1[16.7 µM],-15,C[C@H]1CN([C@@H](C)CO)C(=O)Cc2cc(NS(=O)(=O)c3cn(C)cn3)ccc2O[C@@H]1CN(C)S(=O)(=O)c1cccs1
-31[16.7 µM],2,C[C@H](CO)N1C[C@H](C)[C@@H](CN(C)C(=O)Nc2ccccc2)OCCCC[C@H](C)Oc2ccc(NS(=O)(=O)c3cn(C)cn3)cc2C1=O
-34[16.7 µM],-10,O=C(C[C@H]1CC[C@H](NS(=O)(=O)c2cccc(F)c2)[C@H](CO)O1)N1CCCCC1
35[16.7 µM],4,C[C@H]1CN([C@@H](C)CO)C(=O)CCCn2nncc2CO[C@H]1CN(C)Cc1ccccc1C(F)(F)F
19[16.7 µM],-3,Cc1ccc(S(=O)(=O)N[C@H]2CC[C@H](CC(=O)NCc3ccc(Cl)c(Cl)c3)O[C@H]2CO)cc1
7[16.7 µM],9,CN(C)C(=O)c1ccc(-c2ccc([C@@H]3[C@@H](CO)N(C(=O)C4CCC4)[C@H]3C#N)cc2)cc1
-4[16.7 µM],-12,COCC(=O)N1C[C@@H](C)[C@@H](OC)CN(C)C(=O)c2cc(NS(C)(=O)=O)ccc2OC[C@@H]1C
26[16.7 µM],3,C[C@@H]1CCCCO[C@H](CN(C)Cc2ccc(C(F)(F)F)cc2)[C@H](C)CN([C@H](C)CO)C(=O)c2cc(NC(=O)Nc3cccc4ccccc34)ccc2O1
26[16.7 µM],9,C[C@@H]1CN([C@@H](C)CO)C(=O)c2cc(NC(=O)Nc3ccccc3)ccc2O[C@H]1CN(C)S(=O)(=O)c1ccccc1
15[16.7 µM],3,Cc1noc(C)c1NC(=O)Nc1ccc2c(c1)C(=O)N([C@H](C)CO)C[C@@H](C)[C@H](CN(C)Cc1ccc(C(F)(F)F)cc1)OCCCC[C@@H](C)O2
3[16.7 µM],23,CCCN(C)C[C@@H]1Oc2cc(/C=C/c3ccccc3)ccc2S(=O)(=O)N([C@H](C)CO)C[C@@H]1C
-18[16.7 µM],1,O=C(Nc1ccccc1F)N[C@@H]1CC[C@H](CCNC(=O)C2CCCC2)O[C@H]1CO
-5[16.7 µM],6,CC(C)CC#Cc1cnc2c(c1)C(=O)N([C@@H](C)CO)C[C@H](C)[C@H](CN(C)Cc1cncnc1)O2
-40[16.7 µM],28,CC(C)CC#Cc1ccc2c(c1)O[C@H](CN(C)C(=O)NC1CCCC1)[C@@H](C)CN([C@H](C)CO)S2(=O)=O
-18[16.7 µM],7,C[C@H](O)C#Cc1ccc2c(c1)O[C@H](CN(C)C(=O)CC1CC1)[C@H](C)CN([C@@H](C)CO)S2(=O)=O
12[16.7 µM],-6,C[C@H]1CN([C@@H](C)CO)C(=O)c2cccc(NC(=O)C3CC3)c2O[C@@H]1CN(C)C(=O)Nc1ccc2c(c1)OCO2
-21[16.7 µM],8,CCCN(C)C[C@@H]1Oc2ncc(Br)cc2C(=O)N([C@@H](C)CO)C[C@@H]1C
-15[16.7 µM],-6,CCNC(=O)C[C@H]1CC[C@H]2[C@H](COc3ccc(NC(=O)Nc4ccc(F)cc4)cc3C(=O)N2C)O1
-3[16.7 µM],-2,COc1ccc(NC(=O)Nc2ccc3c(c2)CC(=O)N([C@H](C)CO)C[C@@H](C)[C@H](CN(C)Cc2ccccc2)O3)cc1
-20[16.7 µM],3,C[C@H](CO)N1C[C@H](C)[C@H](CN(C)CC2CC2)Oc2ncc(-c3ccc(F)cc3)cc2C1=O
-3[16.7 µM],-3,C[C@H](CO)N1C[C@H](C)[C@H](CN(C)C(=O)Nc2ccc(F)cc2)Oc2ccc(NC(=O)Nc3ccc4c(c3)OCO4)cc2C1=O
-5[16.7 µM],-2,COc1ccc(NC(=O)N(C)C[C@H]2OCCCC[C@H](C)Oc3ccc(NS(=O)(=O)c4cccs4)cc3C(=O)N([C@H](C)CO)C[C@@H]2C)cc1
-20[16.7 µM],5,CO[C@@H]1CN(C)C(=O)c2ccc(NS(=O)(=O)c3cccc(F)c3)cc2OC[C@@H](C)NC[C@H]1C
5[16.7 µM],2,C[C@@H]1CCCCO[C@@H](CN(C)Cc2ccc(C(F)(F)F)cc2)[C@@H](C)CN([C@@H](C)CO)C(=O)c2cc(NC(=O)Nc3ccc4c(c3)OCO4)ccc2O1
51[16.7 µM],7,COC(=O)C[C@@H]1CC[C@H]2[C@H](COc3ccc(NC(=O)c4cc(F)cc(F)c4)cc3C(=O)N2C)O1
-48[16.7 µM],28,C[C@@H]1CN([C@@H](C)CO)C(=O)c2cc(-c3ccccc3F)cnc2O[C@H]1CN(C)Cc1cccc(C(=O)O)c1
13[16.7 µM],12,CCCC#Cc1cnc2c(c1)C(=O)N([C@@H](C)CO)C[C@@H](C)[C@H](CN(C)C(=O)Nc1cc(F)ccc1F)O2
6[16.7 µM],10,C[C@@H]1CN([C@@H](C)CO)C(=O)c2cc(N(C)C)ccc2O[C@@H](C)CCCCO[C@H]1CN(C)C(=O)C1CCCCC1
10[16.7 µM],6,C[C@H]1CN([C@@H](C)CO)S(=O)(=O)c2ccc(-c3ccc(F)cc3)cc2O[C@H]1CN(C)C(=O)C1CC1
0[16.7 µM],6,C[C@@H]1CCCCO[C@H](CN(C)C(=O)CCCN(C)C)[C@H](C)CN([C@@H](C)CO)C(=O)c2cc(NS(=O)(=O)c3cn(C)cn3)ccc2O1
13[16.7 µM],11,C[C@@H]1CN([C@@H](C)CO)C(=O)Cc2cc(NS(=O)(=O)c3cn(C)cn3)ccc2O[C@@H]1CN(C)Cc1ccc(Oc2ccccc2)cc1
-38[16.7 µM],-6,C[C@@H]1CCCCO[C@H](CN(C)C(=O)Nc2ccc3c(c2)OCO3)[C@H](C)CN([C@@H](C)CO)C(=O)c2cc(NC(=O)Nc3ccc(F)cc3)ccc2O1
22[16.7 µM],-6,CNC[C@@H]1Oc2ccc(NS(=O)(=O)c3ccc(OC)cc3)cc2CC(=O)N([C@H](C)CO)C[C@H]1C
2[16.7 µM],-8,COc1cccc(-c2ccc3c(c2)O[C@@H](CN(C)C(=O)C2CCC2)[C@@H](C)CN([C@H](C)CO)S3(=O)=O)c1
-26[16.7 µM],0,C[C@@H]1CN([C@@H](C)CO)C(=O)c2cc(-c3cccnc3)cnc2O[C@H]1CN(C)C(=O)C1CCCCC1
9[16.7 µM],-18,CCC(=O)N(C)C[C@@H]1Oc2ncc(C#Cc3ccncc3)cc2C(=O)N([C@@H](C)CO)C[C@H]1C
28[16.7 µM],9,C[C@@H]1CN([C@@H](C)CO)C(=O)Cc2cc(NC(=O)CCN3CCOCC3)ccc2O[C@H]1CN(C)Cc1ccc(C(F)(F)F)cc1
-9[16.7 µM],-4,C[C@@H]1CN([C@H](C)CO)C(=O)Cc2cc(NC(=O)c3ccncc3)ccc2O[C@@H]1CN(C)Cc1ccncc1

# (more compounds)
HIV Env fusion,Yeast UUG start,structure
-13[16.7 µM],-10,Cc1ccc(S(=O)(=O)N[C@H]2CC[C@@H](CC(=O)NCCN3CCCCC3)O[C@H]2CO)cc1
-1[16.7 µM],11,Cc1noc(C)c1S(=O)(=O)Nc1ccc2c(c1)C(=O)N([C@@H](C)CO)C[C@H](C)[C@H](CN(C)C(=O)NC(C)C)O2
-16[16.7 µM],-11,CS(=O)(=O)Nc1ccc2c(c1)[C@@H]1C[C@H](CC(=O)NCC(F)(F)F)O[C@H](CO)[C@@H]1O2
-20[16.7 µM],2,CNC(=O)C1=C[C@H](c2csc3ccccc23)C[C@H](OCc2ccc(CO)cc2)O1
-28[16.7 µM],-10,CC(C)C#Cc1cnc2c(c1)C(=O)N([C@@H](C)CO)C[C@H](C)[C@@H](CN(C)C(=O)Cc1ccccn1)O2
0[16.7 µM],-12,O=C(N[C@@H]1CC[C@H](CCNS(=O)(=O)c2ccc(F)cc2)O[C@@H]1CO)c1cccnc1
8[16.7 µM],-2,COc1ccc(NC(=O)N[C@@H]2C=C[C@H](CC(=O)NC3CCC3)O[C@@H]2CO)cc1
4[16.7 µM],-4,CCCc1cn(CC[C@H]2CC[C@@H](NS(=O)(=O)c3ccc(-c4ccccc4)cc3)[C@H](CO)O2)nn1
-17[16.7 µM],-5,C/C=C/c1cnc2c(c1)C(=O)N([C@@H](C)CO)C[C@@H](C)[C@@H](CN(C)C(=O)Cc1cccnc1)O2
-282[16.7 µM],-4,C[C@@H]1CN([C@@H](C)CO)C(=O)c2cc(NS(=O)(=O)c3ccc(F)cc3)ccc2O[C@@H](C)CCCCO[C@H]1CN(C)C(=O)Nc1ccccc1
-11[16.7 µM],0,C[C@H]1CN([C@@H](C)CO)C(=O)c2cc(C#CC3(O)CCCC3)cnc2O[C@@H]1CN(C)C(=O)CC1CC1
9[16.7 µM],31,CC(C)NC(=O)Nc1ccc2c(c1)CC(=O)N([C@H](C)CO)C[C@H](C)[C@@H](CN(C)C(=O)Nc1ccc3c(c1)OCO3)O2
-19[16.7 µM],-13,COCCNC(=O)C[C@@H]1C=C[C@@H](NC(=O)NC2CCCC2)[C@@H](CO)O1
